BJeLR viability – kills HRASV12-expressing BJeLR cells; actives 0.17% (n = 300,000); inhibition, % (concentration not given with the values); BJeLR (HRASV12) viability, CellTiter-Glo ATP luminescence, 48 h; reference of the scale not given here;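 active = replicate mean above 50%; inconclusive = above 50% but judged a plate artefact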;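 also: 50 nL library stock added to about 25 µL; numbers are from one replicate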
Mtb hypoxia inh – inhibitors of hypoxia-regulated fluorescent reporter in Mycobacterium tuberculosis; M. tuberculosis hypoxia-regulated fluorescent reporter, fluorescence; fluorescence inhibition, % (no concentration beside the values); actives 0.1% (n = 300,000); AID 1159583;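 active = 35 to 45% if threefold the growth effect, above 45% if 1.5-fold the growth effect; inactive = the rest, general growth blockers included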;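 also: wells of about 50 µL received 100 nL stock; 0% = vehicle wells and 100% = reference inhibitor wells; whole bacteria with a GFP reporter of the hypoxia response; strong numbers were not always called active; many hits fall short of the cut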
ugtP null kill – compounds lethal to S. aureus RN4220 ugtP deletion mutant; actives 0.54% (n = 330,000); AID 1259309; growth inhibition, % (no concentration beside the values); OD600 growth, 16 h; some inactives read as strong as hits;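 active = z-score under -3 and OD600 up to 0.15 on both plates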;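 also: plate controls were untreated wells for no effect and antibiotic for full effect; wells of about 80 µL received 100 nL stock; the first replicate is given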
PrP 5UTR inh – inhibition of PrP 5' UTR reporter expression. cell-based PrP 5' UTR mRNA reporter, plate reader. inhibition, % (no concentration beside the values). actives 0.35% (n = 340,000). AID 488862;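 active = every replicate at 50% or more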;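 also: 0 = median of the neutral control wells; tested in H4 reporter cells; numbers are from one replicate; inactives centre near -14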
Sa RN4220 lethal – S. aureus RN4220 growth inhibition | OD600, 16 h | inhibition, % (concentration not given with the values) | actives 0.33% (n = 330,000);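 active = z-score of -3 or lower and OD600 up to 0.18 on both plates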;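 also: plate controls were untreated cells for no effect and reference antibiotic for full effect; stock transfer was 100 nL into about 80 µL; one replicate is shown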
Autofluor counter – flagged as autofluorescent in microsphere protease counterscreen | compound autofluorescence counterscreen, microsphere flow cytometry; stronger effect = higher value | fluorescence intensity (no concentration beside the values) | actives 3.1% (n = 360,000);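 active = at least 3 SD above the mean of all compounds, about 16000 in these data; inconclusive = too few beads counted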;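 also: 100 nL of 1 mM stock went into each well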
Mtb hypoxia inh growth – also measured in Mtb hypoxia inh; calls as there; growth inhibition, %; measured here: M. tuberculosis growth (absorbance);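 0% = vehicle and 100% = reference antibiotic; read after six days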
An asterisk follows results filed as active; ? = inconclusive; / = not tested or not shown; & = joins results of further samples.

Every second line gives: BJeLR viability	Mtb hypoxia inh	Mtb hypoxia inh growth	ugtP null kill	PrP 5UTR inh	Sa RN4220 lethal	Autofluor counter
COCCNC(=S)NN=C(C)c1ccc(OC(F)F)cc1
    /	15	15	2	/	6.2	/
CCOC(=O)N1CCN(C(=O)CN(C)S(=O)(=O)c2ccc(Cl)cc2)CC1
    -3	-14	3	6	-25	6.4	3934
CC(C)Cn1c(S(=O)(=O)O)nc2ccccc21
    1	2	3	11	0	3.7	5066
O=C(Nc1cccc(Cl)c1)c1ccc(F)c(S(=O)(=O)NCc2ccc3c(c2)OCO3)c1
    -4	9	4	-12	-16	-6.3	2424
O=C(/C=C/c1ccco1)NC(=S)N1CCCCC1
    -12	6	6	8	-19	2.3	5265
CNC(=O)c1ccc(-c2ccc(Cl)c(Cl)c2)s1
    1	0	9	8	-67	8.4	2006
CNS(=O)(=O)c1cccc(C(=O)OCC(=O)N2CCCC2)c1
    2	-2	-2	3	-7	-0.8	3097
Cc1onc(-c2c(F)cccc2Cl)c1C(=O)Nc1nnc(-c2ccccc2)s1
    -11	6	2	18	9	7.2	6320
CCc1nc2cc(C)nn2c2nc3ccccc3n12
    0	6	11	14	-21	10	2904
Cc1ccc(NC(=O)C2C3CCCC2C3c2ccccc2)cc1 (configuration not stated)
    -11	0	-1	-6	-2	-0.1	2410
CN(C)C(=O)C(NC(=O)c1ccccc1)=C(Cl)Cl
    /	10	4	6	9	4.1	3336
O=C(CCc1nc2ccccc2c(=O)[nH]1)NCc1ccccn1
    -3	-3	4	-1	-10	1.7	2671
COCCN=C1N[C@@H](c2ccccc2)C(C(=O)OC)=C(C)N1Cc1ccccc1
    7	/	/	/	-9	/	4041
CC(C)c1ccc(S(=O)(=O)N(C)C2(C)CCS(=O)(=O)C2)cc1 (configuration not stated)
    1	2	3	5	-10	1.3	5869
Cc1cccc(N2C(=O)CC(N3CCN(c4cccc(C(F)(F)F)c4)CC3)C2=O)c1 (configuration not stated)
    -1	-2	-1	0	-34	0.1	20300*
CNC(=O)COC(=O)c1ccc(-c2nc3ccccc3s2)s1
    33	4	4	5	-76	6.1	7684
CC(=O)N1CCN(c2ccc(NC(=O)c3ccc(Br)o3)cc2Cl)CC1
    8	-12	8	-3	-39	-0.4	4712
Cc1ccc(S(=O)(=O)CCC(=O)Oc2ccc3c(C)cc(=O)oc3c2)cc1
    5	4	-5	4	-12	1.1	4640
COc1ccccc1N1C(=O)Cc2ccccc2C1=O
    -8	-2	-8	9	-16	4.9	4973
CCNC(=O)CC1C(=O)N(c2ccc(F)cc2)C(=O)N1CCc1ccc(OC)cc1 (configuration not stated)
    -6	-2	6	2	-18	3.1	20994*
Cc1cc(NC(=O)CCC(=O)N(CC(=O)NC2CCCC2)c2ccc3c(c2)OCCO3)no1
    0	/	/	2	8	2.5	3237
O=C(CSc1nnc(-c2ccccc2)n1-c1ccc(Cl)cc1)N/N=C/c1ccccc1C(=O)O
    6	/	/	/	-29	/	5624
COc1cc(CNc2ncn[nH]2)ccc1OCC(=O)NC(C)(C)C
    /	9	2	4	-32	9.6	4277
C/C(=N\NC(N)=S)C1C2C3CC4C5CC(C42)C1C53 (configuration not stated)
    -9	/	/	/	-4	/	4818
COc1ccnc(-n2cccc2C=NO)c1C#N
    /	0	-19	12	/	7.3	/
O=C(c1ccccc1NS(=O)(=O)c1ccc(Br)s1)N1CCOCC1
    0	0	11	-6	-28	15	9513
Cc1c([N+](=O)[O-])cc(C(=O)Oc2ccc(Br)cc2C(=S)N2CCCCC2)cc1[N+](=O)[O-]
    1	15	3	-9	-15	9.3	22033*
CC(C)[C@H](NC(N)=O)C(=O)Nc1cccc(S(=O)(=O)N2CCOCC2)c1
    11	-5	3	23	-5	8.0	4369
CCc1sc(C(=O)Nc2cccc(C(C)=O)c2)cc1C
    -3	3	-3	2	-20	7.6	7537
Cc1c(N/C=C/C(=O)C(F)(F)F)c(=O)n(-c2ccccc2)n1C
    -1	5	4	5	-13	5.0	4276
Cc1ccc(-c2nnc(N3CCCCC3)c3ccccc23)cc1S(=O)(=O)N(C)C
    6	1	-1	1	-10	1.5	9243
COc1ccc(CNC(=O)c2ccc(CS(=O)(=O)Cc3ccccc3F)o2)cc1
    18	9	8	19	-18	2.7	4544
Cc1noc(C)c1CCC(=O)NC1CCCN(Cc2ccc(Cl)cc2)C1 (configuration not stated)
    -1	3	0	11	-12	4.7	/
COc1cc(C2C(=O)c3ccccc3C2=O)ccc1O
    -5	-4	0	5	-16	4.9	3836
CC(=NNC(=O)c1ccccc1)c1ccc2c(c1)OCO2
    /	2	7	-1	/	7.1	/
S=C(NCc1ccccc1)NCc1ccc2c(c1)OCO2
    -15	13	10	16	-62	4.6	2394
O=c1[nH]c2ccc(S(=O)(=O)N3CCN(C4CCCCC4)CC3)cc2[nH]c1=O
    1	5	-4	4	-18	1.6	10697
COc1ccc(C(=O)N/N=C\c2coc3ccccc3c2=O)cc1
    -3	/	/	/	-4	/	5740
COc1ccc(S(=O)(=O)N(C)c2ccc(C(=O)NCC3CCCO3)cc2)cc1OC (configuration not stated)
    -1	/	/	/	9	/	4591
CCCn1c(C)cc(C(=O)CSc2nc3ccccc3c(=O)n2Cc2ccco2)c1C
    -12	6	-5	-10	-62	-4.3	10518
O=C(Nc1ccc(Cl)cc1F)C1CC1c1ccccc1 (configuration not stated)
    4	0	1	7	-12	-2.1	4174
COc1cccc(-c2nn(-c3ccc(C)cc3)cc2C(=O)NCC(c2cccs2)N2CCOCC2)c1 (configuration not stated)
    -3	12	0	-5	-20	3.3	7281
CN1CCN(Cc2cccc(Oc3ccccc3)c2)CC1
    -9	4	3	32	-30	4.2	9643
COc1ccc(C)cc1NC(=O)CCN1CC(C)OC(C)C1 (configuration not stated)
    4	-4	-1	11	10	7.1	4312
O=C(NCc1ccc2c(c1)OCO2)c1cccnc1Cl
    -7	20	3	7	-30	0.7	6720
O=C(Nc1cccc(-c2cn3cccnc3n2)c1)c1ccc(Br)o1
    6	-4	1	-5	-13	4.2	22911*
O=C(NCc1ccco1)C1c2ccccc2Oc2ccccc21
    7	/	/	-3	-7	3.8	3015
Fc1ccccc1-c1nc(NCc2ccco2)c2ccccc2n1
    -7	12	2	2	-20	3.6	2170
Cc1ccc(N2C(=O)/C(=C/c3ccco3)SC2=S)cc1
    -8	/	/	/	-44	/	2603
CCC(=O)N(Cc1cc(=O)[nH]c2ccccc12)C1CCCCC1
    1	7	3	-4	-2	1.5	4382
CC(Sc1nc(C(F)(F)F)nc2ccccc12)C(=O)NC1CCCC1 (configuration not stated)
    /	2	6	5	-20	0.2	5783
O=[N+]([O-])c1ccc(OCc2cn(C(CO)c3ccccc3)nn2)c(Br)c1 (configuration not stated)
    /	10	10	12	/	11	/
COc1ccccc1N(C)S(=O)(=O)c1ccc(C(=O)OCC(=O)NCCC2=CCCCC2)cc1
    -9	8	1	7	-5	8.6	2432
CCC(=O)NC(=S)Nc1ccc(NC(=O)c2ccco2)c(OC)c1
    6	9	2	4	7	3.9	2329
CCC(C)(C)n1nnnc1C(C(C)C)N(Cc1cccnc1)Cc1ccco1 (configuration not stated)
    4	2	9	0	-1	5.1	3446
C(=C\c1ccccc1)/CN1CCN(Cc2ccc3c(c2)OCO3)CC1
    10	6	4	14	-24	2.6	3428
COc1ccc(-n2cc(CN(C)Cc3n[nH]c(=O)[nH]3)c(-c3cccc(F)c3)n2)cc1
    3	-5	-1	4	-11	5.7	4118
CC(=O)N1CCN(C(=S)NC(=O)c2c(-c3ccccc3Cl)noc2C)CC1
    -2	-3	10	3	-12	0.5	4317
COc1cccc(C=NNC(=O)CNC(=O)COc2cccc(C)c2)c1O
    /	1	9	-6	/	-0.6	/
O=[N+]([O-])c1ccc2nc(-c3ccccc3)n(OCc3ccc(Cl)cc3)c2c1
    0	12	3	-19	-44	4.0	9788

2 consecutive compounds already listed, quoted:
Every second line gives: BJeLR viability	Mtb hypoxia inh	Mtb hypoxia inh growth	ugtP null kill	PrP 5UTR inh	Sa RN4220 lethal	Autofluor counter
COc1ccc(CNC(=O)c2ccc(CS(=O)(=O)Cc3ccccc3F)o2)cc1
    18	9	8	19	-18	2.7	4544
Cc1noc(C)c1CCC(=O)NC1CCCN(Cc2ccc(Cl)cc2)C1 (configuration not stated)
    -1	3	0	11	-12	4.7	/

Next section
Every second line gives: BJeLR viability	Mtb hypoxia inh	Mtb hypoxia inh growth	ugtP null kill	PrP 5UTR inh	Sa RN4220 lethal	Autofluor counter
COc1ccc(NC(=O)CCNS(=O)(=O)c2ccc(Cl)c([N+](=O)[O-])c2)cc1S(N)(=O)=O
    -5	0	-7	5	-8	1.0	3172
S=C(NCc1ccco1)NCC(c1ccco1)N1CCCCC1 (configuration not stated)
    5	19	9	4	-4	1.0	3319
CN(Cc1cnccn1)C(=O)C1CCC(=O)N(CCc2ccc(Cl)cc2)C1 (configuration not stated)
    2	8	6	-3	-17	4.4	5688
CCS(=O)(=O)c1nc2ccccc2n1CC(=O)N1CCCCC1
    -3	/	/	0	2	1.5	4692
CCOC(=O)C1(CCOc2ccccc2)CCN(C(=O)c2ccc(-n3cccn3)cc2)CC1
    -8	2	5	-4	-33	3.8	4875
COc1cc(OC)cc(C(=O)OCCCOC(=O)c2cc(OC)cc(OC)c2)c1
    4	6	-3	5	1	4.2	4011
Cc1cc(C(=O)NN=C2CCCCCC2)c(C)o1
    -14	11	-3	6	-26	3.5	4773
COc1ccc(/C=N/Nc2nccnc2Cl)cc1
    28	/	/	/	-18	/	11457
COC(=O)c1c(NC(=S)NNS(=O)(=O)c2ccc(OC)cc2OC)sc2c1CCCCCC2
    -1	3	9	92*	-3	-7.7	?
O=C(Nc1cccc(Cl)c1)c1ccc(NCCCN2CCOCC2)c([N+](=O)[O-])c1
    0	-8	-3	14	-13	21	3417
COc1ccc2[nH]cc(C(=O)CN3CCN(C(=O)c4ccco4)CC3)c2c1
    6	9	4	2	-10	5.6	2545
COc1cc(/C=C/C(=O)OCC(=O)NCCCc2ccccc2)ccc1O
    /	-4	5	3	-14	0.5	5382
O=C(NCCCN1CCOCC1)c1ccc2c(=O)n(Cc3cccc(Br)c3)c(=S)[nH]c2c1
    -3	6	-1	-2	-30	0.3	4151
CCOc1ccc(NC(=S)N2CCC(NC(=O)c3ccccc3)CC2)cc1
    -7	9	-1	0	-30	0.2	5442
COc1ccc(-n2c(SCC(N)=O)nnc2-c2ccccc2F)cc1
    -1	3	5	-2	-23	-1.2	16562*
Cc1ccc(N(CC(O)CN2CCCC2)S(=O)(=O)c2ccc(C)cc2)cc1 (configuration not stated)
    3	-9	4	-5	-21	-1.0	4763
COc1ccc(NC(=O)Nc2cccc(C)n2)cc1
    -7	/	/	4	-51	5.5	5324
CSc1ccccc1-n1nnnc1SCC(=O)Nc1ccccc1C
    1	11	11	-6	0	7.5	20932*
FC(F)(F)c1nnc2ccc(N3CCCCC3)nn12
    -1	9	-7	-2	/	1.8	/
CCN(CC)S(=O)(=O)c1ccc(C(O)=C(C#N)c2nc3ccccc3n2C)cc1
    /	6&4	6&-5	-4&-8	-14	2.3&0.3	3830
CCCc1nc(C)cc(N2CCN(c3ccccc3)CC2)n1
    -1	2	5	9	1	0.8	3421
Oc1ccc(Br)cc1/C=N/n1c(-c2ccccc2)n[nH]c1=S
    0	/	/	/	-10	/	3913
Cc1cc(C)c(OC2(c3ccccc3)OC(=O)c3ccccc32)c(C)c1 (configuration not stated)
    -2	16	3	85*	3	-3.0	11853
O=C(Cn1cnc2ccccc2c1=O)NCc1cccs1
    -4	4	4	3	-9	3.7	4625
COc1ccc(CCNC(=O)c2cccc(Br)c2)cc1OC
    -6	1	5	0	-17	-0.4	3218
Cc1ccccc1NC(=O)Nc1cnccn1
    2	12	2	4	-21	2.2	4208
COc1c(Cl)cc(Cl)cc1/C=N/NC(=O)c1nnn(-c2nonc2N)c1CN1CCC(C)CC1
    4	/	/	/	-21	/	5396
CCN1C(=O)NC(CCc2ccccc2)C(C(=O)OC)=C1C (configuration not stated)
    /	-1	2	3	/	15	/
O=C(Cc1ccsc1)NCC(=O)Nc1ccc(F)c(F)c1
    -6	7	6	11	-3	-0.2	6443

Source: PubChem (several laboratories)
